# PMP22 txn prim – Cell-based coincidence reporter assay to measure PMP22 gene transcription in S16 Pmp22-F2sN cells - Primary screen | Potency, µM (doses to about 57.5 µM), without a hit: at the top dose activity change, negative = inhibition, actives largely listed as inhibitors | S16 Pmp22-F2sN Schwann cells (luciferase reporters placed in the Pmp22 gene), FLuc/NLuc coincidence luminescence, 24 h | 2% of 43,000 active | AID 1508649, 2021; active = clear falling dose curves in both reporters; inconclusive = both reporters move, but less clearly or upward; inactive = either reporter flat; the % is the NLuc reporter signal; also: % is scaled to controls: 0 for no effect and ±100 for the full control effect; some results filed as inactive show a strong effect at the top dose
#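 Reporter cells (S16 Pmp22-F2sN, 500–1,000 per well) exposed to compounds for 24 h, 37C, 5% CO2; lysis with FLuc read after 10 min, then Stop&Glo and NLuc read after 10 min.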
# HTT promoter inh – Primary qHTS for Identification of Small Molecule Inhibitors of Huntingtin Promoter Activity; HEK293 HTT promoter firefly luciferase reporter (activity 0% = vehicle and -100% = no light), 24 h; Potency, µM (highest dose often 57.5 µM), for inactives: at the highest dose activity change, negative = inhibition, most hits filed as inhibitors; 0.93% of 48,000 active; AID 1508623, 2021; active = well fitted inhibition curve with a large enough effect; inconclusive = small, poorly fitted or top-dose-only effect; inactive = no such curve, though single readings can be large or run the other way; also: nearly all actives have a fitted effect of over 50% in size
#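 Luminescence was read after Dual-Glo reagent and a 10 min room-temperature incubation. Values were normalized to vehicle (0% activity) and zero RLU (-100% activity). Reporter HEK293 cells had been exposed to compounds (up to 57.5 uM final) for 24 h.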
# * = called active by the depositor; ? = inconclusive; . = no result given; [ ] = remark or other dose. Potency is read from the fitted curve at half-maximal effect. Compounds were not picked by outcome; about 2.6% have a hit in one of these screens.
SMILES,PMP22 txn prim,HTT promoter inh
COc1cc(NC(=O)CSc2ncc(S(=O)(=O)c3ccc(Br)cc3)c(=O)[nH]2)cc(OC)c1,-57.3%,-1.3%
Cc1cn(C)c(CC(=O)NCc2ccccc2Cl)c1C(=O)O,-6.5%,-5.2%
CCN(CC)CCCNC(=O)Cc1ccc(NC(=O)N2CCCCc3ccccc32)cc1,?,-8.4%
COc1ccccc1C(=O)NC1(C(F)(F)F)C(=O)Nc2c1c(=O)[nH]c(=O)n2-c1ccc(F)cc1 (centres undefined),-47.8%,1.6%
Cc1cc(C)c(NC(=O)CCc2c(C)nc3c(c(C)nn3C(C)(C)C)c2C)c(C)c1,-20.1%,-9.0%
O=C(CSc1nccn1-c1cccc(Cl)c1)Nc1ccc2c(c1)OCO2,6.3%,-18.2%
Cc1ccc2c(c1)c(=O)c(C(=O)c1ccc3c(c1)OCO3)cn2Cc1cccc(F)c1,5.5%,?
COc1ccc(NC(=O)CSc2oc(-c3ccco3)nc2S(=O)(=O)c2ccccc2)c(OC)c1,1.3%,?
Cc1nn(C(=O)c2c(F)cccc2F)c(C)c1S(=O)(=O)N1CCCCCC1,1.7%,-5.6%
CCn1c2ccccc2c2nnc(N3CCN(c4ccc(F)cc4)CC3)nc21,-11.1%,4.9%
Cc1c(CCNC(=O)c2ccco2)sc2nc(-c3ccc(F)cc3)nn12,-13.6%,-27.6%
COc1cc(NC(=O)C(CCSC)NS(=O)(=O)c2ccc3c(c2)oc(=O)n3C)cc(OC)c1 (centres undefined),-7.5%,-29.9%
COc1ccc2oc(-c3ccc(C)c(NC(=O)CSc4ccc(Cl)cc4)c3)nc2c1,-15.2%,-8.7%
CCc1ccc(OCC(=O)Nc2ccc3c(c2)c2ccccc2n3CC)cc1,?,-5.8%
COc1ccc(N2CCN(Cc3nc4c(c(=O)[nH]c(=O)n4C)n3Cc3ccccc3)CC2)cc1,-5.7%,-12.8%
Cc1nc2c3ccccc3nc(NNC(=O)CCC(=O)N3CCN(c4cccc(C(F)(F)F)c4)CC3)n2n1,?,?
CN(Cc1ccccc1)c1ncnc2c1nc1n2CCCC1,-11.4%,-8.1%
CCCCSc1nc(-c2ccc(OC)cc2)ccc1C#N,-30.3%,-28.0%
O=C(CSCc1cnn(-c2ccccc2)c1-n1cccc1)NCc1ccc(F)cc1,-18.4%,-15.3%
CCN1CCC(N(Cc2cccc(OC)c2)C(=O)Nc2cccc(C(F)(F)F)c2)CC1,?,-5.3%
CSc1ccc(C2c3[nH]c4ccccc4c3CCN2C(=O)CCc2ccccc2)cc1 (centres undefined),25.5%,-26.6%
Cc1cccc(S(=O)(=O)c2cn(Cc3ccccc3)c3cc(N4CCCCC4)c(F)cc3c2=O)c1,-8.7%,-13.4%
Cc1nn2cc(-c3ccc(OC(C)C)cc3)nc2s1,?,-38.9%
COc1ccc(-c2nc3ccccc3s2)cc1NC(=O)c1ccc(C#N)cc1F,0.3%,-5.0%
CC1CCN(C(=O)CN2c3ccc(Br)cc3-c3ccccc3S2(=O)=O)CC1,?,43.4%[activator]

# (cont.)
SMILES,PMP22 txn prim,HTT promoter inh
COc1ccc2c(c1)c(=O)c(C(=O)c1ccc(C)c(C)c1)cn2CC(=O)Nc1ccc2c(c1)OCCO2,-47.4%,-7.3%
Cc1cccc(NC(=O)c2oc3ccccc3c2NC(=O)Cc2coc3cc(C)cc(C)c23)c1,-15.0%,5.8%
COc1ccc(C(=O)c2c(N)c(-c3nc(-c4ccccc4)cs3)c3ccccn23)cc1,-31.3%,-11.1%
Cc1ccc(-c2cn3c(n2)sc2cc(C(=O)NCCC4=CCCCC4)ccc23)c(C)c1,-1.8%,29.1%
Cc1cc(C)cc(N2C(=O)N(Cc3cccc(F)c3)c3ccccc3S2(=O)=O)c1,16.4%,?
CCC(Oc1ccc(F)cc1)C(=O)Nc1cc(-c2ccc(C)cc2)no1 (centres undefined),?,-8.8%
CCOC(=O)c1ccc(CN(Cc2ccc(Br)cc2)S(=O)(=O)c2cccc(Cl)c2C)cc1,-4.4%,-18.0%
c1ccc2c(CCNc3ccc(Nc4ccncc4)cc3)c[nH]c2c1,.,-18.3%
O=S(=O)(Nc1ccc(O)c(Sc2nc3ccccc3s2)c1)c1cc(Cl)ccc1Cl,-12.4%,?
COc1ccc(-c2nn(C)c3sc(C(=O)Nc4cc(OC)c(OC)c(OC)c4)cc23)cc1OC,?,?
Cc1cc(Br)ccc1NC(=O)c1cn(C2CCCC2)c(=O)c2c1c1ccccc1n2C,-8.9%,0.8%
COc1ccc(Br)c2c1-c1nc(NC(=O)c3cccc(C)c3)sc1C2,11.3µM*,-7.4%
Cc1cc(Nc2ccc(C)c(Cl)c2)n2nc(Cc3ccccc3)nc2n1,?,-25.3%
CCOC(=O)c1c(NC(=O)COc2ccc(Cl)cc2C)sc(C(C)=O)c1C,2.3%,4.7%
Cc1ccc(C(=O)c2oc3ccccc3c2NC(=O)c2cc(-c3ccc(Cl)cc3)on2)cc1,2.0%,-13.1%
CC(=O)c1nnn(-c2ccc(C)cc2Cl)c1C,-2.9%,-15.3%
COC(=O)c1ccccc1NC(=O)c1ccc2c(c1)CCN2S(C)(=O)=O,-7.4%,-13.2%
COc1cccc2cc(-c3nc(-c4ccc(Cl)cc4)cs3)c(=O)oc12,-13.4%,-4.0%
Cc1c(C(=O)N2CCCCCC2)c(S(=O)(=O)Nc2ccc(OC(F)(F)F)cc2)c(C)n1C,?,-25.5%
COc1ccc(CCNC(=O)C(=O)NCC(c2cccs2)S(=O)(=O)c2ccc(F)cc2)cc1 (centres undefined),?,?
COC(=O)c1cccc(CN2C(=O)SC(Nc3ccc(Br)cc3)C2=O)c1 (centres undefined),1.0%,-22.1%
Cc1ccc(C2=Nc3ccccc3N(CC(=O)Nc3ccccc3C)C(=O)C2)cc1C,?,61.9%[activator]
Cc1ccc(/C=C/C(=O)Nc2ccc(Cl)cc2Cl)cc1,-67.9%,24.6%
CC(=O)c1ccc(NC(=O)CN(C)S(=O)(=O)c2cc3c(cc2C)NC(=O)CO3)cc1,-19.5%,-4.5%
CCCC(=O)Nc1nnc(SCc2cc(=O)n3cccc(C)c3n2)s1,5.7%,-7.6%

# Later entries.
SMILES,PMP22 txn prim,HTT promoter inh
Cc1nc2ccc(S(=O)(=O)NC(C(=O)N3CCN(c4ccc(Cl)cc4)CC3)C(C)C)cc2s1 (centres undefined),-25.0%,-22.7%
CCOC(=O)C1CCN(C(=O)Cn2c(-c3cccs3)cc3cc(Cl)ccc32)CC1,3.2%,?
CCOc1ccc(NC(=O)c2c(NCc3cccc(OC)c3OC)sc3c2CCC3)cc1,-24.6%,-10.3%
COc1ccc(NC(=O)C2=C(C)Nc3ncnn3C2c2ccc(C)o2)cc1 (centres undefined),-3.9%,-5.9%
CC(=O)Nc1cccc(NC(=O)C(=O)NCCc2csc3nc(-c4ccccc4F)nn23)c1,-1.0%,0.0%
CCOC(=O)c1ccccc1NC(=O)c1c2c(nc3ccccc13)C(=O)N(C1CCCCC1)C2,3.7%,-11.9%
CCN(CC)CCCNC(=O)CSc1nc(-c2ccc(OC)cc2)cc(C(F)(F)F)n1,-9.0%,-24.0%
COc1ccccc1C(=O)Nc1ccc(-c2nc3ccccc3s2)c(C)c1,-0.6%,86.6%[activator]
CC(C)CN(CCNC(=O)CCN1N=C(c2ccccc2)CCC1=O)CC(C)C,-28.1%,2.3%
COc1ccc(OC)c(NC(=O)C2Cc3ccccc3CN2S(=O)(=O)c2ccc(F)cc2)c1 (centres undefined),20.8%,-26.7%
CCOc1ccc(-n2cc(-c3ccccc3)c3c(NCc4ccc(F)cc4)ncnc32)cc1,-15.3%,?
Cc1ccc(C2C=C(c3ccc(Cl)cc3)Nc3nc(NS(=O)(=O)c4ccccc4)nn32)cc1 (centres undefined),-43.5%,-11.2%
CCn1cc(C(=O)N2CCN(c3ccccc3)CC2)c(=O)c2cc(S(=O)(=O)N(C)C3CCCCC3)ccc21,-21.1%,-6.8%
CCC(C)NC(=O)CCCc1nnc2n(CC(C)C)c(=O)c3sccc3n12 (centres undefined),1.1%,-3.1%
COC(=O)c1scc(-c2ccc(C)cc2)c1S(=O)(=O)Nc1cccc(C(F)(F)F)c1,-12.0%,23.7%
COc1ccccc1NC(=O)CCn1nc(-c2ccccc2OC)c2c(C)cc(C)nc21,?,-26.6%
CCC(=O)Nc1ccccc1-c1nc2ccccc2n(CC(=O)c2ccc(C)c(C)c2)c1=O,-4.1%,-3.5%
Cc1ccc2scc(N3CCCC(C)C3)c(=O)c2c1 (centres undefined),?,20.0%
Cc1nn2c(=O)cc(COC(=O)c3ccc(NC(=O)C4CCCCC4)cc3)nc2s1,?,?
CC(=O)c1cccc(NC(=O)C2CCCN(C(=O)c3cnn(-c4ccccc4)c3-n3cccc3)C2)c1 (centres undefined),?,?
O=S(=O)(Nc1ccc(OC(F)(F)F)cc1)c1ccc(N2CCCCS2(=O)=O)cc1,-8.1%,?
O=C(Oc1ccccc1)c1cccc(C(=O)Oc2ccccc2)c1,.,37.4%[116 µM]
O=C1CCC[C@@H]2[C@H]3CCC[N+]4([O-])CCC[C@@H](CN12)[C@@H]34 (some centres undefined),.,5.3%
CNc1nc(-c2ccc3c(N)n[nH]c3c2)cc(N2C[C@@H](C(=O)NC3CCCCC3)CC[C@@H]2C)n1,.,-18.4%
CCc1ccc(NC(=O)CSC2=Nc3ccccc3C3=NC(CC(=O)NCc4cccs4)C(=O)N23)cc1 (centres undefined),?,?

# 5 compounds picked at random from those above:
SMILES,PMP22 txn prim,HTT promoter inh
COC(=O)c1scc(-c2ccc(C)cc2)c1S(=O)(=O)Nc1cccc(C(F)(F)F)c1,-12.0%,23.7%
O=C(CSCc1cnn(-c2ccccc2)c1-n1cccc1)NCc1ccc(F)cc1,-18.4%,-15.3%
Cc1nc2c3ccccc3nc(NNC(=O)CCC(=O)N3CCN(c4cccc(C(F)(F)F)c4)CC3)n2n1,?,?
CCN(CC)CCCNC(=O)CSc1nc(-c2ccc(OC)cc2)cc(C(F)(F)F)n1,-9.0%,-24.0%
COc1ccc(OC)c(NC(=O)C2Cc3ccccc3CN2S(=O)(=O)c2ccc(F)cc2)c1 (centres undefined),20.8%,-26.7%

# Continuation.
SMILES,PMP22 txn prim,HTT promoter inh
CCC1CCCCN1CCCNC(=O)c1ccc2c(c1)N(Cc1ccccc1F)C(=O)c1ccccc1S2(=O)=O (centres undefined),8.91µM*,?
CC(=O)c1ccc(NS(=O)(=O)c2cc3[nH]c(=O)c(=O)[nH]c3cc2C)cc1,3.1%,-2.3%
Cc1ccc(C)c(NC(=O)C(Cc2ccccc2)N2Cc3ccccc3C2=O)c1 (centres undefined),?,?
CC(=O)CSc1nc(-c2ccccc2)[nH]c1S(=O)(=O)c1ccc(C)cc1,-62.7%,-16.9%
COc1ccc(N2CCN(CCCNC(=O)C3COc4ccccc4C3)CC2)cc1 (centres undefined),5.8%,?
CCN(CC)c1cc(NC2CCCCC2)c2c3c(onc13)-c1ccccc1C2=O,?,?
Cn1nc(C(=O)N2CCN(c3ccccc3)CC2)c2c1-c1ccccc1S(=O)(=O)C2,3.4%,-7.8%
CCCCCn1c(=O)[nH]c2cc(C(=O)N3CCN(c4cccc(Cl)c4)CC3)ccc2c1=O,-14.7%,-13.1%
COc1ccccc1Cc1nc2ccccc2nc1SCC(=O)Nc1cc(Cl)ccc1OC,?,-9.8%
O=C(NC1CC(=O)N(c2ccccc2)C1)c1ccco1 (centres undefined),?,-12.8%
COC(=O)C1=C(CS(=O)(=O)c2ccc(C)cc2C)NC(=O)NC1c1ccc(C)cc1 (centres undefined),-8.1%,?
CCc1ccc(-n2c(=O)c3ccc(C(=O)NCCc4ccccc4)cc3n(Cc3ccccc3C#N)c2=O)cc1,-12.8%,-11.7%
CCNC(=O)c1ccc(NC(=O)N2CCCCc3ccccc32)cc1,46.4%,-11.3%
O=C(NCCc1cccs1)c1ccc(Cn2c(SCc3ccc(F)cc3)nc3cccnc32)cc1,-135.8%,11.3%
Cc1ccc(N(CC(=O)N2CCN(c3ccccc3F)CC2)S(=O)(=O)c2c(C)noc2C)cc1,-14.7%,-9.3%
CC(=O)Nc1ccc(NC(=O)CSc2nc3ccccc3nc2N2CCC(C)CC2)cc1,?,-29.7%
CCOC(=O)c1c(NC(=O)COc2ccc(C)cc2C(C)(C)C)sc2c1CCC(C)C2 (centres undefined),9.8%,-6.1%
COc1ccc(CCNc2nc3c(-c4cccc(C)c4)nnn3c3ccccc23)cc1OC,-2.5%,-23.9%
COc1cc([C@@H]2c3cc4c(cc3[C@@H](O[C@@H]3O[C@@H]5CO[C@@H](c6cccs6)O[C@@H]5[C@H](O)[C@@H]3O)[C@H]3COC(=O)[C@H]23)OCO4)cc(OC)c1O,.,?

# Four entries from above, bar-delimited.
compound | PMP22 txn prim | HTT promoter inh
COc1cc([C@@H]2c3cc4c(cc3[C@@H](O[C@@H]3O[C@@H]5CO[C@@H](c6cccs6)O[C@@H]5[C@H](O)[C@@H]3O)[C@H]3COC(=O)[C@H]23)OCO4)cc(OC)c1O | . | ?
CCOC(=O)c1c(NC(=O)COc2ccc(C)cc2C(C)(C)C)sc2c1CCC(C)C2 (centres undefined) | 9.8% | -6.1%
O=C(NC1CC(=O)N(c2ccccc2)C1)c1ccco1 (centres undefined) | ? | -12.8%
CCNC(=O)c1ccc(NC(=O)N2CCCCc3ccccc32)cc1 | 46.4% | -11.3%

# High-throughput results from PubChem BioAssay.
